FGF22 binding – shifts melting point of recombinant human FGF22; calls only at 9.99 µM; recombinant FGF22 thermal shift, SYPRO orange fluorescence; percent of sucrose octasulfate shift, DMSO zero; Q9HCT0; 340,000 tested, 1.5% active; AID 651658;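 active means melting point raised past a set limit in the mean and every replicate; inconclusive means no clear call; three in four hits are not shown here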
Target sequence (Q9HCT0 whole entry, looked up): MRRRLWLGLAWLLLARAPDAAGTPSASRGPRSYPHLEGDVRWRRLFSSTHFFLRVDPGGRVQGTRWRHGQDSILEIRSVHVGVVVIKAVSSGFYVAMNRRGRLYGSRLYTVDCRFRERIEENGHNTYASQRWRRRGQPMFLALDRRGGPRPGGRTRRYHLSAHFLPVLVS
Vif TR-FRET – HIV-1 Vif–A3G interaction blockers – biochemical, TR-FRET, GST-Vif 1-94, biotin-A3G peptide, dose response retest, primary screen (AID 1117319); TR-FRET GST-Vif / biotin-A3G peptide binding; higher % means a stronger effect; test concentration not given here; strong numbers were not always called active; inhibition, %; hits with a dose series show IC50 in µM; 260,000 tested, 0.57% active;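 active means above the screen mean plus three standard deviations and confirmed in dose response; inconclusive means results disagree or hit not tested in dose response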;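 further: Vif residues 1-94 fused to GST binding biotinylated APOBEC3G peptide 110-148; 0% = full assay without inhibitor and 100% = GST in place of GST-Vif; retest series ran down from 100 µM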
UCH37 DUB inh – inhibitors of human deubiquitinating enzyme UCH37; inhibition, % (concentration not given with the values); Q9Y5K5; 330,000 tested, 0.33% active; purified proteasome/UCH37, Ub-AMC cleavage fluorescence;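 active means mean of two replicates above 20%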;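 further: 0% = compound-free wells with enzyme and 100% = wells lacking proteasome; stock transfer was 100 nL into about 20 µL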
Target sequence (Q9Y5K5 whole entry, looked up): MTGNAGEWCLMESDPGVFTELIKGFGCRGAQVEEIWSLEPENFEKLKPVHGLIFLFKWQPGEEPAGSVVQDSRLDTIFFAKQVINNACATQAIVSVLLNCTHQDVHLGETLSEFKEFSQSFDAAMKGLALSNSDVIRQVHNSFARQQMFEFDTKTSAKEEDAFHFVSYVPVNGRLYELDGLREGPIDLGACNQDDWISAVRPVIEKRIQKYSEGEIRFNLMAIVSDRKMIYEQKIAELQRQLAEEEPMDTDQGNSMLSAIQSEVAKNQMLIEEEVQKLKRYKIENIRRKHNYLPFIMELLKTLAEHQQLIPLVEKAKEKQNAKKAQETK
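Material: human UCH37 enzyme supplied as purified proteasome complex / Amount: 0.15 nM proteasome as dispensed / Buffer or medium: pH 7.4 Tris-HCl (50 mM) with ovalbumin, ATP-MgCl2, DTT / Times: preincubation 30 min, reaction 25 min, room temperature / Technique: AMC fluorescence from Ub-AMC cleavage, excitation 355 nm, emission 460 nm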
AF4-AF9 inh – inhibitors of human MLL-AF4/AF9 interaction; AID 651704; AlphaScreen, biotin-AF4 peptide binding to FLAG-AF9; inhibition, % at 10 µM; 350,000 tested, 0.47% active; P42568;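 active means every replicate reaching a set inhibition limit, whatever the replicate mean, cut at about 25% in these data; inconclusive means mean inhibition reaches that limit but some replicates miss it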;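 further: 0% = plate neutral control median and 100% = total signal loss; the record names both 10 and 1 µM as test concentration; the first replicate is given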
Target sequence (P42568 whole entry, looked up): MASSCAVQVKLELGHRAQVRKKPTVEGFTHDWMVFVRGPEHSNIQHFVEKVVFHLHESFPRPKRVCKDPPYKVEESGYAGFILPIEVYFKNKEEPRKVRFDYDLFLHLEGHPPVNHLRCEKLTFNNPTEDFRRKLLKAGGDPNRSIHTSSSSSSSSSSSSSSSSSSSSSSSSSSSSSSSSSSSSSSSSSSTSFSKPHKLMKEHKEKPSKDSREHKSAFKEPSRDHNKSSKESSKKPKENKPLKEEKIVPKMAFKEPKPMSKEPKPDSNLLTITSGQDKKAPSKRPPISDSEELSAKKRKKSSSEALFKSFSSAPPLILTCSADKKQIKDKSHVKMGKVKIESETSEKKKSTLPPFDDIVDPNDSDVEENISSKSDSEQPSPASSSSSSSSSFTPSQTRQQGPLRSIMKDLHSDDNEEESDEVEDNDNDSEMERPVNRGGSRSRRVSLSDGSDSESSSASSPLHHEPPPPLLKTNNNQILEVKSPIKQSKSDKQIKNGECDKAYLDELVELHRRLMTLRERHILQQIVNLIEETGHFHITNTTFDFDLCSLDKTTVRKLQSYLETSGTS
Ecoli growth – inhibitors of Escherichia coli growth; OD600, 23 h; hits give low values; OD600 absorbance (test concentration not listed); 330,000 tested, 0.21% active; AID 1053175;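 active means OD600 absorbance below the run mean of sample wells minus 3.6 SD, in any replicate, cut at about 0.56 in these data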;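 further: stock transfer was 300 nL into about 60 µL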
HNF4A DNA FP – change in binding of human HNF4 alpha to DNA; HNF4a-FITC DNA binding, fluorescence polarization, 1 h; activity change, % at 10 µM; 360,000 tested, 0.3% active; in the data active means activity change above about 30%, passing the limit was not always enough;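 further: controls were the assay level and a saturating level of protein; the project sought stronger binding though the title names inhibitors; some compounds called inactive have numbers as strong as hits; positive values seem to mean higher polarization but the record does not say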
RanGTP-Imp inh – disruptors of Ran-importin-beta complex formation – biochemical, FRET, CFP-Ran, YFP-importin-beta, homogeneous, primary screen; 300,000 tested, 1.1% active; cell-free CFP-Ran/YFP-importin-beta FRET ratio; AID 2216; inhibition, % (test concentration not listed);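 active means most replicates above 15%; inconclusive means exactly half above 15%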;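 further: 0% = DMSO wells and 100% = Ran loaded with GDP instead of GTP; wells of about 40 µL received 100 nL stock; the first replicate is given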
The depositor's hits bear a star; i = inactive; u = inconclusive; x = no result given. A portion of the library; count on the stated rates, not on these rows.

SMILES | FGF22 binding | Vif TR-FRET | UCH37 DUB inh | AF4-AF9 inh | Ecoli growth | HNF4A DNA FP | RanGTP-Imp inh
CCCCOCCCNC(=O)C[C@@H]1C[C@@]2(C(=O)OC)CCCCC=C2N(CCc2ccc(OC)c(OC)c2)C1=O | i | x | x | 0.4 | x | 0.6 | x
CCCC(C)NC(=O)c1ccc(F)cc1 (stereo not given) | x | 2% | 0.2 | x | 0.68 | 2.5 | -2.0
COc1cccc2c1cc1c(=O)n(CC(=O)N3CCN(c4cccc(C)c4C)CC3)nc(C)n12 | i | x | x | -11 | x | 0.7 | x
Cc1ccc(C)c(N(CC(=O)Nc2cc(Cl)ccc2Oc2ccccc2)S(C)(=O)=O)c1 | x | 8% | 6.0 | x | 0.77 | 1.8 | 0.1
O=c1nc(-c2ccccc2)c2cc(SC(F)F)ccc2[nH]1 | i | -38% | -32 | -1.2 | 0.67 | -0.9 | -2.0
Cc1nnc(NC(=O)C2c3ccccc3Oc3ccccc32)s1 | x | -3% | 6.4 | x | 0.75 | 2.8 | 4.6
C/C(=N\NC(=S)NC(C)C)c1ccc2c(c1)OCCO2 | i | x | x | 7.4 | x | -1.0 | -0.3
O=C(NNS(=O)(=O)c1ccccc1[N+](=O)[O-])c1cccc([N+](=O)[O-])c1 | i | 20% | 1.1 | -7.0 | 0.66 | -0.8 | 1.0
CCCCn1c(CNC(=O)c2cccs2)nc2ccccc21 | i | 0% | 2.4 | 0.7 | 0.67 | 0.3 | -3.7
CCOC(=O)C1=C(C)N=c2s/c(=C\c3ccc(OCC(=O)O)cc3)c(=O)n2C1c1ccccc1OC (stereo not given) | i | 2% | x | 8.4 | x | 7.9 | 1.9
O=C(/C=C/c1ccc2c(c1)OCO2)NCCS(=O)(=O)N1CCN(c2ccc(F)cc2)CC1 | i | 3% | -20 | -15 | 0.73 | -1.8 | -1.6
Cc1ccc(SCC(=O)OC(C)C(=O)Nc2ccc(S(N)(=O)=O)cc2)cc1C (stereo not given) | i | -2% | 2.6 | 3.8 | 0.67 | 1.1 | 2.6
CC(C)(C)c1nc2c(Br)cc(Br)cc2c(=O)o1 | x | 27% | 0.9 | x | 0.62 | -3.1 | u
COC(=O)c1ccc2c(=O)n3c(nc2c1)SCC(c1ccccc1)=N3 | i | -11% | 1.6 | 7.8 | 0.76 | -1.0 | -3.6
CCOP(=O)(OCC)c1nc(/C=C/c2ccccc2)oc1NCc1ccc(OC)cc1 | x | -4% | i | x | 0.75 | -4.6 | -0.5
CN(C)C1=NCCN1CCC1CCCCC1 | i | x | 5.4 | -1.3 | 0.67 | -3.1 | x
O=C(Cc1ccccc1)NCC(=O)OCC(=O)c1ccc(Cl)c([N+](=O)[O-])c1 | x | 14% | x | x | x | -0.3 | 0.4
CCC(=O)Nc1nnc(S(=O)(=O)N2CCCCCC2)s1 | i | x | 7.1 | -0.7 | 0.77 | -2.1 | 3.5
COc1ccc(NC(=O)C[C@H]2C(=O)N(C3CCCCC3)C[C@@H]2c2ccccc2)cc1 | i | 4% | x | -0.5 | x | 3.3 | x
O=C(NCc1ccccc1)C1COc2ccccc2O1 (stereo not given) | x | 0% | 3.1 | x | 0.58 | -4.8 | 0.7
O=C(Nc1ccc(C(=O)N2CCCCC2)cc1)C1=CSCCO1 | i | x | 8.5 | -9.0 | 0.69 | 3.2 | 2.4
COc1ccc(NC(=O)c2nc[nH]c2C(=O)N[C@@H](CC(C)C)C(=O)OC(C)(C)C)cc1 | i | -1% | x | 5.9 | x | -0.4 | 3.0
COc1ccc(CC2(C)OC(c3ccncc3)=NN2C(C)=O)cc1 (stereo not given) | i | 4% | 0.6 | -1.0 | 0.68 | 1.8 | -2.1
CC(=O)c1ccc(N2CCN(C(=O)CCS(=O)(=O)c3ccc(C)cc3)CC2)cc1 | x | 19% | 8.0 | x | 0.76 | 1.7 | x
Cc1ccc(CC(=O)N2CCN(c3ccccc3F)CC2)cc1 | x | -3% | 3.2 | x | 0.68 | 0.5 | -4.2
COC(=O)c1cnc(SCC(=O)c2ccccc2)n1C | i | 1% | -0.7 | 1.0 | 0.69 | 1.0 | -4.7
CCc1nc2c(OCCOC)cccn2c1N(C)C(=O)c1ccco1 | i | x | x | -2.0 | x | -0.4 | x
CC1CCN(C(=O)CN(c2ccc(Oc3ccccc3)cc2)S(C)(=O)=O)CC1 | x | -1% | 4.3 | x | 0.69 | 3.6 | 7.8
CCO[C@@H]1OC(C(=O)N2CCN(Cc3ccc4c(c3)OCO4)CC2)=C[C@H](c2ccc(C(F)(F)F)cc2)[C@H]1CCCO | i | -14% | 2.2 | 5.6 | 0.78 | 0.1 | 3.8
Cc1cc([N+](=O)[O-])nn1CC(=O)N/N=C/c1ccc(O)cc1O | i | 10% | x | 3.5 | x | 9.5 | 2.6
O=C(Nc1ccc2c(c1)OCCO2)c1ccco1 | i | 0% | 4.3 | -11 | 0.68 | 6.7 | -2.1
O=C(Nc1ccccc1C(F)(F)F)c1ccsc1 | i | -6% | 5.3 | -2.7 | 0.66 | -0.6 | -2.8
CCCCn1c(N)c(N(CCOC)C(=O)COc2ccc(OCC)cc2)c(=O)[nH]c1=O | i | 3% | -1.1 | -1.4 | 0.7 | 5.4 | -2.7
CC(C)CN1CCN=C1Nc1ccccc1 | i | x | 4.1 | 1.3 | 0.73 | -3.3 | -3.1
CCSc1nc2sc3c(c2c(=O)n1-c1ccccc1)CCN(C(C)C)C3 | i | -5% | -47 | -4.7 | 0.7 | 17 | -7.7
O=C1CCCc2nc(N3CCN(c4ccccc4)CC3)ncc21 | x | 1% | 0.6 | x | 0.69 | -3.4 | -0.3
CCOC(CNC(=O)C1CCN(S(=O)(=O)c2ccc3nc4c(c(C(=O)O)c3c2)CC(C)CC4)CC1)OCC (stereo not given) | i | x | 0.7 | -1.6 | 0.71 | -6.0 | 4.6
COC(=O)C1(C)COP(=O)(Nc2ccc(OC)cc2)OC1 (stereo not given) | i | x | x | -1.7 | x | 3.5 | x
COc1ccc(-n2c(SCC(=O)Nc3ccccc3)nnc2-c2ccoc2C)cc1 | x | 8% | 2.9 | x | 0.69 | -0.4 | 1.4
CC(NC(=O)c1cc(S(=O)(=O)N2CCOCC2)ccc1F)c1ccc(-n2ccnc2)cc1 (stereo not given) | i | 2% | -1.5 | -12 | 0.72 | 2.6 | x
C[C@@H]1CN([C@@H](C)CO)C(=O)c2c(c3ccccc3n2C)-c2ccccc2CO[C@H]1CN(C)S(=O)(=O)c1ccc(C#N)cc1 | i | 5% | x | -0.9 | x | 6.3 | x
Cc1ccc(Cn2c(C3CCCN3c3nc(C)cs3)nc3cc(C(=O)NCCCO)ccc32)cc1 (stereo not given) | i | x | 3.6 | 6.2 | 0.67 | 6.8 | 0.5
Nc1cc(=O)[nH]c(SCc2cccc(Cl)c2)n1 | x | 1% | 2.7 | x | 0.72 | -1.3 | x
CCOC(=O)C(Cc1ccccc1)NC(=O)CCc1nnc2ccc(N3CCCC3)nn12 (stereo not given) | i | 3% | 5.7 | -1.3 | 0.69 | 1.4 | 0.4
CCC(O)(CC)C(=O)N(Nc1ccc(C)cc1)c1ccc(C)cc1 | i | -5% | 2.4 | u | 0.65 | -2.4 | -1.3
COc1ccc(C2NCCc3c2[nH]c2ccccc32)cc1CN1CCc2cc(OC)c(OC)cc2C1C (stereo not given) | x | u | 3.5 | x | 0.71 | 5.8 | -2.6
CC(Oc1ccccc1Cl)C(=O)N(Cc1ccco1)C1CCS(=O)(=O)C1 (stereo not given) | x | 18% | -1.3 | x | 0.67 | 31* | 1.2
CN1CCN(c2nc(-c3cccs3)nc3ccccc23)CC1 | i | 1% | 6.1 | 8.7 | 0.63 | -1.0 | -1.9
Cc1cc(N2CC(C)OC(C)C2)nc(C(C)C)n1 (stereo not given) | i | 1% | 0.1 | -0.1 | 0.66 | 0.3 | -3.2
CCOC(=O)c1ccc(NC(=S)NNC(=O)c2cc(-c3cccnc3)nc3ccccc23)cc1 | i | x | 6.9 | 1.7 | 0.69 | 2.8 | 1.3

Further structures:
SMILES | FGF22 binding | Vif TR-FRET | UCH37 DUB inh | AF4-AF9 inh | Ecoli growth | HNF4A DNA FP | RanGTP-Imp inh
COc1cc(NC(=O)CN(C)S(=O)(=O)c2cccs2)cc(OC)c1 | i | -9% | 0.5 | 1.2 | 0.65 | -1.0 | 6.1
O=C(Cc1cccc2ccccc12)NCC(=O)N1CCN(CC(=O)Nc2ccc(F)cc2)CC1 | i | -15% | x | -9.8 | x | 1.2 | x
O=C(NCC(c1ccco1)N1CCN(c2ccc(F)cc2)CC1)C1CCCCC1 (stereo not given) | i | -6% | -1.8 | 2.8 | 0.68 | -1.3 | 5.5
O=C(NCCc1nnc2ccc(NCc3ccc(F)cc3)nn12)c1ccccc1 | i | u | 3.2 | x | 0.67 | 2.2 | 3.6
COc1cccc(N2C(=O)CC(Nc3ccc(N4CCOCC4)cc3)C2=O)c1 (stereo not given) | x | 28% | 1.6 | x | 0.67 | 0.1 | -2.9
COc1ccc(-c2cn[nH]c2-c2ccc(OCc3ccc([N+](=O)[O-])cc3)cc2O)cc1 | i | 2% | 1.9 | 1.7 | 0.67 | -2.8 | -0.6
COc1ccc(Br)cc1CNCC1CCCO1 (stereo not given) | i | x | -1.6 | 2.3 | 0.68 | 0.0 | 3.1
NNc1nc(-c2ccccc2)c2cc(Cl)ccc2n1 | i | -6% | -1.5 | 7.5 | 0.65 | 0.6 | -1.3
COc1ccc(CCNC(=S)NC2CCN(Cc3ccccc3)CC2)cc1OC | i | 8% | 2.4 | 2.9 | 0.71 | 1.0 | 7.9
COC(=O)c1c(NC(C)=O)sc(C(=O)Nc2ccccc2OC)c1C | i | 0% | -45 | -1.1 | 0.67 | 0.8 | -0.8
CCc1ccc(NC(=S)Nc2ccc3cn[nH]c3c2)cc1 | i | 14% | 6.0 | 10 | 0.69 | 1.2 | 2.3
Cc1ccc(C)c(S(=O)(=O)N2CCCC2CNC(=O)c2ccc([N+](=O)[O-])cc2)c1 (stereo not given) | i | -10% | 0.9 | 1.3 | 0.62 | 1.6 | 5.4
C=C1CCN(c2ccc(C(=O)NCCC)cc2[N+](=O)[O-])CC1 | i | x | 2.1 | 7.4 | 0.65 | -1.4 | -4.5
O=[N+]([O-])c1ccc(COn2nnc3ccccc32)cc1 | i | -2% | 0.5 | -1.9 | 0.68 | 0.2 | 4.2
Cc1cc(C[n+]2ccsc2N)c2ncccc2c1 | i | 0% | -3.5 | -0.4 | 0.66 | 0.8 | -1.5
COc1cccc(/C=N/N(C)C2=NS(=O)(=O)c3ccccc32)c1O | i | -1% | x | -3.1 | x | 2.0 | -0.4

6 of these compounds, reformatted.
molecule,FGF22 binding,Vif TR-FRET,UCH37 DUB inh,AF4-AF9 inh,Ecoli growth,HNF4A DNA FP,RanGTP-Imp inh
O=C(NCCc1nnc2ccc(NCc3ccc(F)cc3)nn12)c1ccccc1,i,u,3.2,x,0.67,2.2,3.6
CCCCn1c(N)c(N(CCOC)C(=O)COc2ccc(OCC)cc2)c(=O)[nH]c1=O,i,3%,-1.1,-1.4,0.7,5.4,-2.7
CCCCOCCCNC(=O)C[C@@H]1C[C@@]2(C(=O)OC)CCCCC=C2N(CCc2ccc(OC)c(OC)c2)C1=O,i,x,x,0.4,x,0.6,x
COc1ccc(NC(=O)c2nc[nH]c2C(=O)N[C@@H](CC(C)C)C(=O)OC(C)(C)C)cc1,i,-1%,x,5.9,x,-0.4,3.0
COc1ccc(CC2(C)OC(c3ccncc3)=NN2C(C)=O)cc1 (stereo not given),i,4%,0.6,-1.0,0.68,1.8,-2.1
COc1cccc(N2C(=O)CC(Nc3ccc(N4CCOCC4)cc3)C2=O)c1 (stereo not given),x,28%,1.6,x,0.67,0.1,-2.9

Compound activity as filed in PubChem BioAssay.
